# Mtb growth: Confirmatory growth inhibition assay against Mycobacterium tuberculosis H37Rv, potency (AID 1949). most inactive calls were filed without a number and no value below 0 was filed. inhibition, % at 10 µg/mL, or IC50 in µg/mL where a hit was titrated. 100,000 tested, 1.6% active;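 active = confirmed in a dose series; inconclusive = about 50% or more but not retested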;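 also: bacteria grown 7 days with compound before Alamar blue readout; 0% = untreated bacteria and 100% = reference antibiotic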
# Numbers without * were called inactive; i = inactive; ? = inconclusive. This is a subset; count on the stated rates, not on these rows.
Compound	Mtb growth
O=C1c2ccccc2C(=O)N1CCCCN(C(=O)c1cccc(Cl)c1)c1ccc(F)cc1F	i
CCOC(=O)N1CCN(C(=O)CN(C2CCCCC2)S(=O)(=O)c2ccc(Cl)cc2)CC1	i
COc1ccccc1NC(=O)CN(c1ccccc1C)S(=O)(=O)c1ccc(C)cc1	i
Cc1cc(=O)oc2cc(NC(=S)N3c4ccccc4CC3C)ccc12 (stereo unspecified)	i
COc1ccc(CNc2ncc3c(n2)CC(c2ccccc2)CC3=O)cc1 (stereo unspecified)	i
CC1Cc2ccccc2N1C(=O)c1ccc2snnc2c1 (stereo unspecified)	i
COc1ccc(NC(=O)c2ccccc2N(C)S(=O)(=O)c2ccccc2)cc1Cl	i
Cc1ccc(C)c(NC(=O)C(C)Oc2ccc(C)c(C)c2)c1 (stereo unspecified)	i
CCOC(=O)c1c(NC(=O)c2c(F)c(F)c(F)c(F)c2F)sc(C(=O)OC)c1C	0.37µg/mL*
CCOc1ccc(Cl)cc1S(=O)(=O)n1ccc(C)n1	i
O=C1CC(c2ccccc2F)c2c(ccc3ccccc23)N1 (stereo unspecified)	0.4%
C=CCn1c(NC(=O)c2ccccc2)c(C(=O)OCC)sc1=S	i
O=C1CC(c2ccc(S(=O)(=O)NCc3ccco3)cc2)CN1 (stereo unspecified)	3.3%
CCCCc1ccc(NC(=S)NC(=O)c2cccc3ccccc23)cc1	i
Cc1ccc(-c2nn(CC(=O)N(C)C)c(=O)c3ccccc23)cc1	i

# The list goes on.
Compound	Mtb growth
O=C(NNC(=S)NC(=O)c1cccs1)c1ccc(NC(=O)c2ccccc2)cc1	i
CCc1ccc(NC(=O)CSc2nnc(-c3ccncc3)n2CC)cc1	i
O=C(c1ccccc1)c1ccccc1C(=O)N1CCN(C(=O)c2ccccc2)CC1	i
CCOC(=O)c1ccc(NC(=O)CCSc2ccc(C)cc2)cc1	15.0%
COC(=O)Cc1ccc2c3ccccc3n(C)c2c1	i
COc1c(C)cc(Br)cc1C(=O)Nc1cccc(Cl)c1Cl	i
CC(=O)c1cc(CN2C(=O)c3ccccc3C2=O)cs1	2.9%
C1CCN(c2nc(N3CCCC3)nc(N3CCNCC3)n2)C1	i
O=[N+]([O-])c1ccc2c(c1)CSc1nc3ccccc3n1-2	i
CCCc1cc(=O)[nH]c(SCc2ccc(Cl)cc2Cl)n1	i
C=CCN(c1ccc(C(=O)NCCCOC)cc1)S(C)(=O)=O	i
COC(=O)CCC(=O)Nc1ccc(S(=O)(=O)N(C)Cc2ccccc2)cc1	i
Cc1cccc(Nc2nc(C)cc(C)c2C#N)c1	i
O=C(COc1ccc(Cl)cc1Cl)NC12CC3CC(CC(C3)C1)C2	1.7%
COc1cc(SC)ccc1C(=O)Nc1ccc(C)c(C)c1	4.3%

# (next part)
Compound	Mtb growth
O=C(CSc1ccc(Cl)cc1)Nc1ccc2c(c1)OCCO2	25.4%
CCSc1nnc2nc(C)cc(C)n12	i
O=C1C2ON(c3ccc(Cl)cc3)C(c3cccs3)C2C(=O)N1Cc1ccccc1 (stereo unspecified)	i
Cc1ccc([N+](=O)[O-])cc1S(=O)(=O)Nc1ccccc1C(=O)O	i
Cc1cccc(C)c1NC(=O)C1CCN(S(=O)(=O)c2ccc(F)cc2)CC1	i
CCc1ccccc1NC(=O)Cc1cccc2ccccc12	1.4%
CCC(Oc1ccccc1)C(=O)NCCc1ccc(OC)cc1 (stereo unspecified)	0.3%
O=C(NCc1cccs1)C(=O)Nc1ccc(F)cc1F	4.7%
COc1ccc(-c2cc(=O)oc3cc(OCC(=O)OCc4ccccc4)ccc23)cc1	16.4µg/mL*
O=C(NC1CCCCCC1)C(Cl)(Cl)Cl	0.2%
COc1cc(Cl)cc(/C=C(/C#N)c2ccc([N+](=O)[O-])cc2)c1O	8.6%
COc1cc(C2C3=C(CCCC3=O)NC3=C2C(=O)CCC3)cc(Cl)c1O	i
CCOC(=O)c1cnc2ccc(C(=O)OC)cc2c1Nc1ccc(OC)cc1OC	i
CN1C(=O)c2ccc(-c3ccc4c(c3)C(=O)N(C)C4=O)cc2C1=O	i
O=C(c1cnn2c1NC(c1ccc(Br)cc1)CC2C(F)(F)F)N1CCCCC1 (stereo unspecified)	i

# Next part.
Compound	Mtb growth
CCCC12CN3CC(C)(CN(C1)C3c1ccc3c(c1)OCO3)C2=O (stereo unspecified)	i
O=C(CC1Nc2ccccc2NC1=O)Nc1ccccc1SC(F)(F)F (stereo unspecified)	i
COc1ccc(CC(=O)Nc2c(F)cccc2F)cc1OC	i
C=CCn1c(CNC(=O)c2ccc(OC)c(OC)c2)nnc1SCC(=O)Nc1c(Cl)cc(Cl)cc1Cl	i
Cc1cc([N+](=O)[O-])ccc1NC(=O)C1CC(=O)OC12CCCCC2 (stereo unspecified)	0.7%
O=C(O)Cn1cc(C(=O)C2CCCCC2)c2ccccc21	i
COc1ccc(CCNC(=S)n2cc(C)cn2)cc1OC	i
CCOC(=O)C1=C(c2ccccc2)NC(=O)NC1c1cc(O)ccc1Br (stereo unspecified)	2.4%
N#C/C(=C/c1c[nH]c2ccccc12)c1ccc2c(c1)OCO2	27.1%
Cc1ccccc1-c1nnn(CC(=O)Nc2ccc(F)cc2F)n1	i
CCC(C)C(=O)Nc1ccc(NC(=O)c2ccco2)cc1 (stereo unspecified)	i
Cc1cccc(CC2CC(=O)N(C3CCCCC3)C2=O)c1 (stereo unspecified)	1.7%
CCN(CC)C(=O)Oc1ccc(OC(=O)N(CC)CC)cc1	i
CNCc1ccccc1OCc1ccccc1F	i
CCN(CC)C(=O)c1sc(NC(=S)NC(C)c2ccc(C(C)(C)C)cc2)c(C(=O)OC)c1C (stereo unspecified)	3.8%

# Next entries follow.
Compound	Mtb growth
CCc1cc(=O)oc2cc(C)c(CN(C)C)c(O)c12	i
CCOC(=O)CC(=O)CSc1nc(C)cc(C)c1C#N	4.7%
CC(=O)c1ccc(Nc2nc(-c3cccnc3)cs2)cc1	i
COc1ccc(-c2csc(NC(=S)NC(=O)c3ccc(-c4ccccc4)cc3)n2)cc1OC	i
CCn1c(SCC(=O)Nc2ccccc2F)nnc1-c1ccc(N)cc1	i
O=C(Cc1cccs1)Nc1cccc(S(=O)(=O)c2cccc(NC(=O)Cc3cccs3)c2)c1	i
Cc1ccccc1C(=O)N1CCN(c2ccc(C(=O)NC34CC5CC(CC(C5)C3)C4)cc2[N+](=O)[O-])CC1	41.5%
Cc1cccc(C(C)C)c1NC(=O)CCc1ccccc1	42.9%
COc1cccc(OC)c1OCCNC(C)(C)C	i
O=C(Nc1ccc(S(=O)(=O)NCCc2ccccc2)cc1)c1cccc(F)c1	0.6%
N/C(=N\OC(=O)c1cccc([N+](=O)[O-])c1)c1ccccn1	1.9%
O=C(CCN1CCN(CCO)CC1)Nc1cccc(F)c1	i
N#CC1=C(N)Oc2n[nH]c(-c3ccc([N+](=O)[O-])cc3)c2C1c1c(F)cccc1Cl (stereo unspecified)	i
O=C(CCn1[nH]c(=O)c2ccccc2c1=O)NCc1ccccc1	i
CCC(=O)Nc1ccc(C(=O)Nc2cccnc2)cc1	i

# Two neighbouring entries already listed, for reference:
Compound	Mtb growth
O=C(CCn1[nH]c(=O)c2ccccc2c1=O)NCc1ccccc1	i
CCC(=O)Nc1ccc(C(=O)Nc2cccnc2)cc1	i

# Later entries:
Compound	Mtb growth
Cc1oc(C(=O)O)cc1CSc1ncn[nH]1	i
COc1ccc(OCC(=O)Nc2ccc(-c3nc4ccccc4c(=O)o3)cc2)cc1	19.4%
C=CCc1cc(C)ccc1OCCCn1ccnc1	3.52µg/mL*
COc1ccc(CCNc2nc3c(c(=O)n(C)c(=O)n3C)n2Cc2ccccc2Br)cc1OC	i
Cc1cccnc1Nc1nc(-c2cccnc2)cs1	?
O=C(Cn1nc(C(F)(F)F)c2c1CCCC2)N1CCN(Cc2ccccc2)CC1	i
C=C(C)Cn1c(C(F)(F)F)nc2ccccc21	i
COc1ccc(OC)c(NC(=O)C2=C(C)Nc3ncnn3C2c2cccs2)c1 (stereo unspecified)	i
FCCOc1ccc(OCCF)cc1	6.0%
CCOc1ccccc1-c1nc2c(C(C)(C)C)nn(C)c2c(=O)[nH]1	i
COc1cc2c(cc1OC)C(c1cc3ccccc3oc1=O)=NC(C)(C)C2	i
CSc1ccccc1NC(=O)c1cc(-c2ccccc2)on1	i
Cc1ccc(S(=O)(=O)NC(=O)Nn2c(C)nnc2C)cc1	i
Cc1cc(C)c(S(=O)(=O)N(C)CC(=O)Nc2c(F)cccc2F)c(C)c1	i
CCOC(=O)c1ccc(NS(=O)(=O)c2cccc3cccnc23)cc1	i

# Exported as labelled records: entries from further up
COc1ccc(OC)c(NC(=O)C2=C(C)Nc3ncnn3C2c2cccs2)c1 (stereo unspecified)
  Mtb growth = i

FCCOc1ccc(OCCF)cc1
  Mtb growth = 6.0%

# Going on with the list:
Compound	Mtb growth
Cc1cccc(OCC(=O)N2CCN(c3ccc(C(F)(F)F)cc3[N+](=O)[O-])CC2)c1C	?
CNC(=O)C(=O)NCc1cccc(OC)c1	i
CC(=O)c1ccc(N2CCN(C(=O)Nc3ccc(Br)cc3Cl)CC2)cc1	i
COc1ccc(NC(=O)c2cc(-c3ccccc3)nc3ccccc23)cc1OC	2.5%
COC(=O)C1=CN(C(C)C)C=C(C(=O)OC)C1c1ccc([N+](=O)[O-])cc1	i
N#Cc1c(SCc2ccc(C(=O)O)cc2)nc2c(c1-c1ccccc1)CCC2	i
Cc1ccc(CNC(=O)CSc2nc3cc(C(F)(F)F)ccc3s2)cc1	i
O=C(NC(=S)Nc1ccc(Br)c(Cl)c1)c1cccs1	i
CC1CCc2c(sc3ncn(CCCc4ccccc4)c(=O)c23)C1 (stereo unspecified)	7.4%
O=C(Nc1ccccc1)N1N=CCC1c1ccccc1 (stereo unspecified)	i
O=S(=O)(Nc1nc2c(s1)CCCC2)c1ccc(F)cc1	i
COc1cc(OC)cc(C(=O)NC(=S)Nc2nc(-c3ccc4ccccc4c3)cs2)c1	4.0%
CCN(C(=O)c1cc2ccccc2oc1=O)c1ccccc1	i
CC(NS(=O)(=O)c1ccc(Cl)cc1)C(=O)Nc1cc(Cl)ccc1Oc1ccccc1 (stereo unspecified)	5.7%
Cc1nn(Cc2cccc(Oc3ccccc3)c2)c(C)c1NC(=O)NC12CC3CC(CC(C3)C1)C2	i

# New compounds follow.
Compound	Mtb growth
Cc1ccc(CSCC(=O)Nc2ccc(I)cc2C)cc1	i
O=C(NC1CCCC1)c1ccc(CSCc2ccccc2)cc1	i
CCOc1cccc(-c2nnc(SCC(=O)Nc3cccc(Cl)c3C)n2C)c1	i
COc1cc(C)nc(SCC(=O)CC(C)=O)c1C#N	i
CNS(=O)(=O)c1ccc(NC(=O)c2oc3ccccc3c2C)cc1	2.0%
O=C(Nc1ccccc1C(=O)NCCc1ccccc1)c1ccc(F)cc1	0.4%
CC(=O)CC(=O)Nc1ccc2c(c1)OCO2	i
CS(=O)(=O)N(CCC#N)Cc1ccco1	2.3%
CSCCC(C(=O)O)N1C(=O)C2C3c4ccccc4C(c4ccccc43)C2C1=O (stereo unspecified)	i
CC(NC(=O)C12CC3(C)CC(C)(CC(C)(C3)C1)C2)C(=O)Nc1ccc(F)cc1F (stereo unspecified)	i
O=C(Oc1ccc(C(=S)N2CCCC2)cc1)c1cc(Cl)ccc1Cl	3.0%
CC(C)c1ccc(-c2csc(NC(=O)c3ccccc3F)n2)cc1	i
O=C1CC(N2CCC(c3nc4ccccc4s3)CC2)C(=O)N1Cc1ccccc1 (stereo unspecified)	0.9%
O=C(Cc1ccccc1)Nc1nnc(SCc2ccccc2)s1	2.5%
Cc1nnc(SCC(=O)Nc2cc(C(F)(F)F)ccc2N2CCOCC2)s1	i

# Following part.
Compound	Mtb growth
O=C(CSc1ccc(Br)cc1)Nc1cccc(Cl)c1Cl	i
O=C(Nc1ccncc1)c1ccccc1I	i
O=C(CN1CCCCC1)NC1CC2CCC1C2 (stereo unspecified)	1.4%
O=C(Nc1cc(C(F)(F)F)ccc1Cl)c1sc2cc(Cl)ccc2c1Cl	i
C=CCc1cccc(C2Nc3ccccc3NC3=C2C(=O)CC(C)(C)C3)c1O (stereo unspecified)	1.5%
CC(C)CNC(=O)C(C)N(c1ccc(Cl)cc1)S(C)(=O)=O (stereo unspecified)	i
CCC(Oc1ccccc1)C(=O)Nc1ccc(C(C)=O)cc1 (stereo unspecified)	i
COc1ccc(NC(=O)c2ccncc2)c(C)c1	i
COC(=O)c1ccc(C(=O)OC)c(NC(=O)CCC2CCCC2)c1	i
Cc1cc([N+](=O)[O-])ccc1NC(=O)CN1C(=O)C2C3C=CC(C3)C2C1=O (stereo unspecified)	i
CCOc1ccc(C(C)=O)cc1CSc1nc(C)cc(C)n1	i
CCCN(CC1CC1)C(=S)Nc1ccccc1F	i
CCOC(=O)c1c(N)sc(C(=O)Nc2ccc(OC)cc2OC)c1C	i
CCN(CC)CC(=O)Nc1sc2c(c1C(=O)Nc1ccccc1)CCC2	6.1%
CCCc1cc(C(=O)NNC(=S)NCC2CCCO2)cs1 (stereo unspecified)	i
CCC(Oc1ccc2ccccc2c1)C(=O)Nc1nccs1 (stereo unspecified)	i
COc1ccc(C(=O)Oc2ccccc2[N+](=O)[O-])cc1	i

# Structures shown so far that contain a COOH group (five):
Compound	Mtb growth
Cc1ccc([N+](=O)[O-])cc1S(=O)(=O)Nc1ccccc1C(=O)O	i
O=C(O)Cn1cc(C(=O)C2CCCCC2)c2ccccc21	i
Cc1oc(C(=O)O)cc1CSc1ncn[nH]1	i
N#Cc1c(SCc2ccc(C(=O)O)cc2)nc2c(c1-c1ccccc1)CCC2	i
CSCCC(C(=O)O)N1C(=O)C2C3c4ccccc4C(c4ccccc43)C2C1=O (stereo unspecified)	i

# Screening results deposited in PubChem by Southern Research Institute.
